Screening data from PubChem.
hNpr1 antagonist: Natriuretic polypeptide receptor (hNpr1) antagonism - Primary qHTS. Potency, µM (series often up to 46.3 µM), for inactives: top-dose activity change, negative = inhibition, actives largely listed as inhibitors. HEK293 hNpr1 GloSensor cGMP, ANP-stimulated luminescence. AID 1347048, 2019. 1.6% of 76,000 active; active = well fitted inhibition curve with a large enough effect; inconclusive = small, poorly fitted or top-dose-only effect; inactive = no such curve, though single readings can be large or run the other way;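 further: nearly all actives have a fitted effect of over 60% in size; nearly all hits also lower the signal before the agonist is added; a reference antagonist and vehicle were the controls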
Target sequence (P16066 whole entry, looked up): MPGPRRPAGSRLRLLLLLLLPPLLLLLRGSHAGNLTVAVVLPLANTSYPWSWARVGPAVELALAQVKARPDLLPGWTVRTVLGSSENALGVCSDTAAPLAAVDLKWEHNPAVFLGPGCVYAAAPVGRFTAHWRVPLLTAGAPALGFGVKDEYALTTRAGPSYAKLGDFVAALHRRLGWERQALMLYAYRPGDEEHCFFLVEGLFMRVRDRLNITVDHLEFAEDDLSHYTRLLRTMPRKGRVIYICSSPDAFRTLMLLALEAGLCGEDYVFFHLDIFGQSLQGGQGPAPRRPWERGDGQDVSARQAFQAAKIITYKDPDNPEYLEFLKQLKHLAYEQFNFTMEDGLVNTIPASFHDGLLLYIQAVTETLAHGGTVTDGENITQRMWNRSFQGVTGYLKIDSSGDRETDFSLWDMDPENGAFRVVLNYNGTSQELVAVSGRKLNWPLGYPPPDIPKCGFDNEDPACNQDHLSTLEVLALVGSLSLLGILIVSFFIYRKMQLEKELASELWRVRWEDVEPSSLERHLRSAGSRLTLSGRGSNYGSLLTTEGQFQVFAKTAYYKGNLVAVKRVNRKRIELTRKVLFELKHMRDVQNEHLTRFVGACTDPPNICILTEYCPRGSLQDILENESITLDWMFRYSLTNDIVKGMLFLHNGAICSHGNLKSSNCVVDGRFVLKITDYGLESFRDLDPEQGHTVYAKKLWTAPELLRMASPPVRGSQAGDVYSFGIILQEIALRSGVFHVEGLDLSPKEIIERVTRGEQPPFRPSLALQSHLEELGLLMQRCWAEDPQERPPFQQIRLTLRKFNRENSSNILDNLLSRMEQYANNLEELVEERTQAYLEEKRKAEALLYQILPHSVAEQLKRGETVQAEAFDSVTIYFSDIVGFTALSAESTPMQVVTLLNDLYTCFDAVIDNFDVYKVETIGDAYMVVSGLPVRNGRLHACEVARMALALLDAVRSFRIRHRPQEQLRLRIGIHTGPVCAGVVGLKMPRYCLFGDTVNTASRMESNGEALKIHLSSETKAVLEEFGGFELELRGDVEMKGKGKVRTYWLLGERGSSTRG
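HEK293 cells stably expressing human Npr1 and cGMP GloSensor pGS-40F, loaded 2 h with 2% GloSensor reagent, given compound 30 min at room temperature. Luminescence read before and 20 min after 0.1 nM hNppA.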
Active calls of the source: *; ? = inconclusive; [ ] = remark or other dose. On the % scale 0 is the no-effect control and ±100 the full control effect; potency means the concentration at half of the fitted maximal effect. Some of the compounds tested. The share of hits here may be higher or lower than overall.

SMILES	hNpr1 antagonist
COc1cccc([S+](=O)([O-])N2CCC3(C2)C(=O)N(C)c2ccccc23)c1 (configuration not stated)	0%
O=C(c1ccccn1)N1CC(F)(F)C[C@H]1c1nc(-c2ccncc2)no1	4%
CN(C)c1ccc(CN2CCC(Oc3ccc(Cl)cc3)(C(=O)O)CC2)cn1	2%
CCOC(=O)N1CCN(C2CCN(c3cc(CC)nc(C)n3)CC2)CC1	2%
O=C(NC1CC1)c1ccc(N2CC3CC(C2)[C@H]2CCCC(=O)N2C3)nc1 (some centres not stated)	-4%
NC1CCc2nn(CC(=O)NCc3ccc(F)cc3Cl)c(=O)n2CC1 (configuration not stated)	3%
O=C(CC1CCCC1)N1CCC(N2CC3CC(C2)[C@H]2CCCC(=O)N2C3)CC1 (some centres not stated)	-2%
COCCNC(=O)c1ccc2c(c1)N(C)C(CC(=O)N1CCCOCC1)CO2 (configuration not stated)	-3%
COc1ccc(C(=O)N(C)Cc2ccc(-c3ccccc3)cc2)cc1	-20%[70.6 µM]
COCCN1C(=O)c2cccn2CC1CNC(=O)c1cccc(C)c1 (configuration not stated)	0%
COC[C@@H]1CN(C(=O)CCn2cc(C)cn2)C[C@H]1c1nc(C2CC2)no1	5%
CN(C)c1ccc(-c2nnnn2[C@H]2CO[C@H]3[C@@H]2OC[C@@H]3NC(=O)NCc2ccccc2)cc1	6%
Cc1ncsc1CN1C(=O)CO[C@H](c2ccc(NC(=O)C3CCC3)cc2)[C@H]1CO	-1%[70.6 µM]
CCOc1cccc(CN2CCCC(COc3ccccc3C(=O)NC(C)C)C2)c1 (configuration not stated)	1%
O=[S+]([O-])(c1ccccc1)N1CC2(COCCN(Cc3ccccc3)C2)C1	2%[70.6 µM]
CN1C(=O)C(c2ccccc2)CC12CCN(C(=O)c1ccccc1F)CC2 (configuration not stated)	2%
CCC(C)NC(=O)C1COC2(CCN(C(=O)c3ccc(OC)cc3)CC2)N1C(=O)c1ccc(C)cc1 (configuration not stated)	7%
COc1ccc(C(=O)NC[C@H]2O[C@@H](CC(=O)Nc3ccccc3)[C@H](O)[C@@H]2O)cc1	9%[70.6 µM]
O=C(O)C[C@@H]1CCN(C(=O)C2CCC2)C[C@@H]1CCN1CCC(n2c(=O)[nH]c3ccccc32)CC1	1%
CC(C)CCNC(=O)C1CCc2sc(C(=O)N3CCCCC3)cc2C1 (configuration not stated)	?

Another view of 16 compounds above:
Structure | hNpr1 antagonist
O=C(NC1CC1)c1ccc(N2CC3CC(C2)[C@H]2CCCC(=O)N2C3)nc1 (some centres not stated) | -4%
NC1CCc2nn(CC(=O)NCc3ccc(F)cc3Cl)c(=O)n2CC1 (configuration not stated) | 3%
O=C(CC1CCCC1)N1CCC(N2CC3CC(C2)[C@H]2CCCC(=O)N2C3)CC1 (some centres not stated) | -2%
COCCNC(=O)c1ccc2c(c1)N(C)C(CC(=O)N1CCCOCC1)CO2 (configuration not stated) | -3%
COc1ccc(C(=O)N(C)Cc2ccc(-c3ccccc3)cc2)cc1 | -20%[70.6 µM]
COCCN1C(=O)c2cccn2CC1CNC(=O)c1cccc(C)c1 (configuration not stated) | 0%
COC[C@@H]1CN(C(=O)CCn2cc(C)cn2)C[C@H]1c1nc(C2CC2)no1 | 5%
CN(C)c1ccc(-c2nnnn2[C@H]2CO[C@H]3[C@@H]2OC[C@@H]3NC(=O)NCc2ccccc2)cc1 | 6%
Cc1ncsc1CN1C(=O)CO[C@H](c2ccc(NC(=O)C3CCC3)cc2)[C@H]1CO | -1%[70.6 µM]
CCOc1cccc(CN2CCCC(COc3ccccc3C(=O)NC(C)C)C2)c1 (configuration not stated) | 1%
O=[S+]([O-])(c1ccccc1)N1CC2(COCCN(Cc3ccccc3)C2)C1 | 2%[70.6 µM]
CN1C(=O)C(c2ccccc2)CC12CCN(C(=O)c1ccccc1F)CC2 (configuration not stated) | 2%
CCC(C)NC(=O)C1COC2(CCN(C(=O)c3ccc(OC)cc3)CC2)N1C(=O)c1ccc(C)cc1 (configuration not stated) | 7%
COc1ccc(C(=O)NC[C@H]2O[C@@H](CC(=O)Nc3ccccc3)[C@H](O)[C@@H]2O)cc1 | 9%[70.6 µM]
O=C(O)C[C@@H]1CCN(C(=O)C2CCC2)C[C@@H]1CCN1CCC(n2c(=O)[nH]c3ccccc32)CC1 | 1%
CC(C)CCNC(=O)C1CCc2sc(C(=O)N3CCCCC3)cc2C1 (configuration not stated) | ?

(listing goes on)
SMILES	hNpr1 antagonist
CCN(CC)C1(Cc2cc(CN(C)Cc3ccccc3)on2)COC1	-2%[70.6 µM]
CCn1nc(C)cc1C(=O)N1Cc2cnn(Cc3ccc(F)cc3)c2C1	-22%
CNC(=O)N1CCC(C2CCN(C(=O)CCCC(=O)O)C2)CC1 (configuration not stated)	5%
CN1C(=O)CC[C@]2(C(=O)NCc3cc(F)ccc3F)CCCC[C@@H]12	-1%
COc1ccc(C(=O)NC[C@H]2O[C@@H](CC(=O)NCCN(C)C)[C@H](O)[C@@H]2O)cc1	0%[70.6 µM]
CC(=O)N1CCC(N2C[C@@H]3C[C@H](C2)c2c(NC(=O)NC4CCCCC4)ccc(=O)n2C3)CC1	2%
N#Cc1cccc(C(=O)NC2CCCN(c3cc(-c4ccc(Cl)cc4)[nH]n3)C2)c1 (configuration not stated)	-29%
CN1C(=O)C2(CCN(Cc3ccc(C(F)(F)F)cc3)C2)c2ccccc21 (configuration not stated)	-29%
O=C(C1CCOCC1)N1CCC(c2noc(-c3cnccn3)n2)C1 (configuration not stated)	4%
COc1ccc(CNC(=O)C[C@@H]2C[C@H]3O[C@H](CNCc4ccc(F)cc4)[C@@H](O)[C@H]3O2)cc1	-1%
COc1ccc(CNC(=O)N2CCCC(c3nn[nH]n3)C2)cc1 (configuration not stated)	6%
Cc1ccc(-c2cn3c(n2)CO[C@@H](CNC(C)C)C3)cc1	2%[70.6 µM]
Cn1cccc1C(=O)N1C[C@@H](CO)[C@H](c2ccncc2)C1	5%
CC(C)C(=O)N1CC(=O)N(C2CCCCC2)CC(OCc2ccccc2)C1 (configuration not stated)	-2%
COCC[C@]1(O)CCN(C(=O)CCCc2ccccc2)C[C@H]1C	4%
COc1ccc(C2Cn3cnc(C(=O)N4CCC(C(=O)NC5CCCC5)CC4)c3CO2)cc1 (configuration not stated)	-3%
Cc1cc(C)cc(NC(=O)Cn2c(-c3cccc(Cl)c3)nc(C)c(CCO)c2=O)c1	5%
CCS(=O)(=O)N1CCCC(CCC(=O)NCc2ccc(OC)cc2OC)C1 (configuration not stated)	5%
O=C(c1ccncc1)N1CCCCC1c1noc(COc2ccc(F)cc2)n1 (configuration not stated)	-3%
COc1ccccc1C1=NOC(C(=O)NC(C)C)C1 (configuration not stated)	-3%
COCCN1C(=O)CO[C@H]2CN(C3CCOCC3)C[C@H]21	0%[70.6 µM]
O=C(NC1CCN(c2ccc(F)cc2)C1=O)c1cccc(Br)c1 (configuration not stated)	0%
O=C(Cn1nc2c(cc1=O)CCCCC2)NCCc1nc2ccccc2[nH]1	-2%
O=C(CC1=CCCCC1)N1C[C@@H](CO)[C@H](c2ccccn2)C1	6%
COc1ccccc1NC(=O)Cn1c(-c2cccc(Cl)c2)nc(C)c(CCO)c1=O	-3%
CCc1nc(-c2c3n(c(=O)n(Cc4ccccc4)c2=O)CCCCC3)no1	9%
O=C(c1cnccn1)N1CCC(c2nc(C3CCOCC3)no2)CC1	14%
COc1cccc(CN(C)C(C)c2cccs2)c1 (configuration not stated)	0%[70.6 µM]
N#Cc1ccc(C(=O)N2CCCN(C(=O)c3cccnc3)CCC(=O)NCC2)cc1	-3%
CCCS(=O)(=O)N1CCC2(CC1)C(OC)C(=O)N2CC1CC1 (configuration not stated)	5%
Cc1ccccc1CC(=O)N1CCC2(CC1)NC(=O)N(c1ccccc1)N2	6%
Cc1noc(C)c1S(=O)(=O)N(C)Cc1ccccc1C(F)(F)F	17%
O=C(Cn1ccn2nc(-c3ccc(F)cc3)c(CO)c2c1=O)Nc1cccc(Br)c1	-3%
CN(CC1CCOC1)C(=O)Nc1ccccc1F (configuration not stated)	1%
Cc1ccsc1C(=O)Nc1ccc2c(N3CCCCC3)ncnc2c1	-6%
Cc1ccc2c(n1)N(C)[C@H](CO)CCN(C1CCN(C)CC1)C2	0%[70.6 µM]
CN1CCCCCCN(C(=O)c2cc(CN3CCOCC3)on2)[C@H]2CCC[C@H]2C1=O	1%
COC(=O)C1=CN(CC(=O)Nc2cccc(F)c2)S(=O)(=O)N=C1C	4%
CC(=O)c1cccc(C(=O)N2CCC3(CC2)NC(=O)N(Cc2cccc(Cl)c2)C3=O)c1	-11%
CC(C)NC(=O)C[C@@H]1C[C@H]2O[C@H](CNC3CCNCC3)[C@@H](O)[C@H]2O1	10%[70.6 µM]
Cc1cccc(-n2ncc3c2CCCC3NC(=O)CCC(F)(F)F)c1C (configuration not stated)	?
CC(=O)N1CCC([C@@H]2CN(Cc3cccc(F)c3F)C[C@H]2CO)CC1	1%
CN(C)[C@H]1CCCCN(C(=O)c2ccc(CSc3ccccn3)cc2)C1	-7%
COCc1cn(C[C@H]2C[C@@H](NCc3nccs3)[C@H](O)[C@@H]2O)nn1	0%
CCc1nc2c(c(-c3ccc(Cl)cc3)n1)CN(Cc1ccccc1)CC2	-8%
O=C(c1cc(F)ccc1Cl)N1CCN(C(=O)c2nnn3c2COC(c2ccccc2)C3)CC1 (configuration not stated)	-30%
Cn1nc2n(c1=O)CCC(NC(=O)CCC1CCCCC1)CC2 (configuration not stated)	7%
COc1cc(-c2[nH]ncc2CN(CCO)Cc2ccccc2)cc(OC)c1OC	1%
CCc1noc(-c2cn(C3CCCN(C(=O)c4ccccc4)C3)nn2)n1 (configuration not stated)	5%
CC(C)c1cc(C(=O)NCc2cccnc2Oc2cccc(C(F)(F)F)c2)n[nH]1	-22%

(continued)
SMILES	hNpr1 antagonist
CN(C)c1ccc(CN[C@H]2C[C@H]3C(=O)NC[C@@H](CCC(=O)NCc4ccc(F)cc4)N3C2)cc1	-1%
COCC(=O)NC[C@H]1OC[C@@H](NC2CCCCC2)[C@@H]1O	8%[70.6 µM]
Cc1ccc(CN2C[C@@H]3C(=O)N(CCc4ccccc4)C(=O)[C@@H]3C2)c(C)c1	-14%
c1ccc(CC2CCN(Cc3nnc4cc(-c5nc(-c6ccccc6)no5)ccn34)CC2)cc1	8%
CNc1ccc(-c2noc([C@@H]3CCCN3C3CCC3)n2)cn1	2%[70.6 µM]
Cc1ccc(CN2CCn3c(nn(-c4ccncc4)c3=O)C2)cc1	20µM*
CCc1ccc(C(=O)N2CCn3nc(C(O)c4ccccc4)cc3C2)s1 (configuration not stated)	2%
O=C(COc1ccccc1)N1CCC2(CC1)CC(OCC1CC1)CCO2 (configuration not stated)	6%
C[C@@H](NC(=O)[C@@H]1C[C@@H](NS(=O)(=O)c2cccs2)CCN1C(=O)c1ccco1)C(N)=O	8%
Cc1ccc(C(=O)N2C[C@@H](CO)[C@H](c3ccccn3)C2)c(C)c1	-1%
COc1ccc(S(=O)(=O)Nc2ccc(C)n(CC(=O)NCc3ccco3)c2=O)cc1	5%
Cn1c(CO[C@H]2CN(S(=O)(=O)c3ccc(Cl)cc3)C[C@H]2F)nc2ccccc21	?
COCCN1C(=O)CC[C@@]2(C(=O)NCc3ccncc3)CCCC[C@H]12	0%
Cc1cc(C(=O)N(CC2CCN(Cc3ccccc3C)CC2)CC2CCCO2)c(C)o1 (configuration not stated)	-1%
COC1CN(C2CCN(C(=O)NC(C)(C)C)CC2)C12CCOCC2 (configuration not stated)	2%
O=c1c2cc(-c3ccc(F)cc3)nn2ccn1CC(O)c1ccc2c(c1)OCO2 (configuration not stated)	-5%
CNCCN1C(=O)CC[C@H]2CN(C(=O)CCCn3cnnn3)CC[C@H]21	-5%
CN1CCC(OC2CCN(S(=O)(=O)c3ccc(F)cc3)CC2)CC1	4%
O=C([C@@H]1C[C@H](F)CN1C(=O)c1ccoc1)N1CCCCC1	-2%
O=C(NC[C@H]1Cn2ccnc2CO1)c1ccc(C(F)(F)F)cc1	1%[70.6 µM]
O=C(Nc1ccccc1)C1CN(S(=O)(=O)c2cccnc2)CC12CCCCC2 (configuration not stated)	-1%
COc1ccc(N2C(=O)C3(CCCCC3)C2C(=O)N2CCN(C(C)C)CC2)cc1 (configuration not stated)	4%
CSc1nccc(-c2ccccc2CO)n1	1%
O=C(O)C[C@@H]1CCN(C(=O)Nc2ccccc2)C[C@@H]1CCN1CCCCC1	5%[70.6 µM]
O=C(Cc1ccccc1F)N1CCN(c2cc(-c3ccc(Cl)cc3)[nH]n2)CC1	0%
COc1ccc(CNC2(Cc3cc(-c4ccc(OC)cc4)on3)COC2)cc1	-15%[70.6 µM]
O=C(c1ccc(F)cc1)N1CCC2(CNc3ccccc3[S+](=O)([O-])N2)C1 (configuration not stated)	8%
COCCNC(=O)N1CCN(Cc2ccco2)CC(C(=O)O)C1 (configuration not stated)	-12%
COc1ccc(CCn2c(=O)c(-c3noc(C)n3)c3n(c2=O)CCCCC3)cc1	3%
COc1ccc(-c2onc(C)c2C(=O)NCCSCc2ccco2)cc1	-16%
CS(=O)(=O)c1ccc(OCC2(CNC(=O)Nc3cccnc3)C[C@@H](O)[C@@H](O)C2)cc1 (some centres not stated)	1%
O=C(NC1CCCCC1)C1CN(C(=O)c2cc(F)ccc2F)CC12CCOCC2 (configuration not stated)	-6%
CC(C)(C)CC(=O)N1CCC2(CCC(=O)N(CC3CC3)CC2)CC1	6%
O=C(Nc1cccc(Cl)c1)N1CCC(Oc2ncccc2C(=O)N2CCCCC2)C1 (configuration not stated)	-2%
COCCNC(=O)CC[C@]12CC[C@](C)(O)C[C@H]1C(C)(C)C[C@@H]2NS(=O)(=O)c1ccc(C)cc1	3%
O=C(Nc1ccc(F)cc1)N1Cc2[nH]cnc2C[C@H]1c1nc(-c2ccc(F)cc2)no1	-15%[70.6 µM]
O=C(Cn1nc2c(cc1=O)CCCC2)NCCc1nc2ccccc2[nH]1	0%
CCCCNc1ncc(C(=O)O)c(CC)n1	6%
O=C(c1n[nH]c2ccccc12)N1CCc2c(nc3cc(-c4ccccc4Cl)[nH]n3c2=O)C1	1%
